Compound activity deposited in PubChem by several laboratories.
FGF22 binding – FGF22 (human) thermal shift binding; recombinant FGF22 thermal shift, SYPRO orange fluorescence; percent of sucrose octasulfate shift, DMSO zero; calls only at 9.99 µM; hit rate 1.5% among 340,000; AID 651658;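 active means melting point raised past a set limit in the mean and every replicate; inconclusive means no clear call; three in four hits are not shown here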
Vif A3G – HIV-1 Vif–A3G interaction blockers – biochemical, TR-FRET, GST-Vif 1-94, biotin-A3G peptide, dose response retest, primary screen (AID 1117319). TR-FRET GST-Vif / biotin-A3G peptide binding; higher % means a stronger effect; test concentration not given here; strong numbers were not always called active. one-dose inhibition, %; IC50 in µM for titrated hits. hit rate 0.57% among 260,000;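 active means above the screen mean plus three standard deviations and confirmed in dose response; inconclusive means results disagree or hit not tested in dose response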;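 further: Vif residues 1-94 fused to GST binding biotinylated APOBEC3G peptide 110-148; 0% = full assay without inhibitor and 100% = GST in place of GST-Vif; retest series ran down from 100 µM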
AF4-AF9 inh – MLL-AF4/AF9 protein interaction inhibition. AID 651704. inhibition, % at 10 µM. hit rate 0.47% among 350,000. P42568. AlphaScreen, biotin-AF4 peptide binding to FLAG-AF9;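 active means every replicate reaching a set inhibition limit, whatever the replicate mean, cut at about 25% in these data; inconclusive means mean inhibition reaches that limit but some replicates miss it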;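 further: 0% = plate neutral control median and 100% = total signal loss; the record names both 10 and 1 µM as test concentration; the first replicate is given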
Target sequence (P42568 whole entry, looked up): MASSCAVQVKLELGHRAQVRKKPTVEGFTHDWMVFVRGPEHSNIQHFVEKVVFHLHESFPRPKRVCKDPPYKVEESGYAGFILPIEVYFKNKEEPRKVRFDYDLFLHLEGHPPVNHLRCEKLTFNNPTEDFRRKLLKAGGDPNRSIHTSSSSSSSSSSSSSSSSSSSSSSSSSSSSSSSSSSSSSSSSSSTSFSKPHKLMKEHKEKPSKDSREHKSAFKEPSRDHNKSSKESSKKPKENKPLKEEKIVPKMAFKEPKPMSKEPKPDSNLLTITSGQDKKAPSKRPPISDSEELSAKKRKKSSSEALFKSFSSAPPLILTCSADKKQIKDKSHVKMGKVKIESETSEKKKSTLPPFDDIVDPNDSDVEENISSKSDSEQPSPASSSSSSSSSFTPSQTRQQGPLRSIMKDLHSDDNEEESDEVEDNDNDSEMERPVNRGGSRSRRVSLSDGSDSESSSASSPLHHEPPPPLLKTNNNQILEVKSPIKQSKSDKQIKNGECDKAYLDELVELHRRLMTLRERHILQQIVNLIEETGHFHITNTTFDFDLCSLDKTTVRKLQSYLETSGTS
E coli growth – E. coli growth inhibition; Escherichia coli growth, OD600, 23 h; stronger effect = lower value; OD600 absorbance (concentration not given with the values); hit rate 0.21% among 330,000; AID 1053175;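 active means OD600 absorbance below the run mean of sample wells minus 3.6 SD, in any replicate, cut at about 0.56 in these data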;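 further: stock transfer was 300 nL into about 60 µL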
ALR H2O2 inh – inhibitors of human sulfhydryl oxidase ALR; P55789; purified ALR, DTT oxidation, H2O2 HRP-luminol luminescence; inhibition, % (no concentration beside the values); hit rate 3.8% among 290,000;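 active means mean and each replicate at 75% or more; inconclusive means only one of the two met; inactive means neither met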;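 further: stock transfer was 7.5 nL into about 7.5 µL; 0% = neutral wells and 100% = wells with inactivated enzyme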
Ecoli rRNA inh – selective bacterial rRNA inhibition in E. coli | GFP signal change (wild-type ribosome), % (test concentration not listed) | hit rate 1.6% among 350,000 | AID 720706 | E. coli WT GFP vs humanized-ribosome RFP mutants, fluorescence, 24 h; stronger effect = lower value; DMSO median 0, no signal -100;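 active means significant combined selectivity score with lowered wild-type GFP, culture density cut under 30%, mutant RFP and density less affected; inactive means any of these conditions unmet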; further: one replicate is shown; some compounds called inactive have numbers as strong as hits
HNF4A DNA FP – change in binding of human HNF4 alpha to DNA | P41235 | HNF4a-FITC DNA binding, fluorescence polarization, 1 h | activity change, % at 10 µM | hit rate 0.3% among 360,000 | AID 1224865; in the data active means activity change above about 30%, passing the limit was not always enough;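 further: controls were the assay level and a saturating level of protein; the project sought stronger binding though the title names inhibitors; some compounds called inactive have numbers as strong as hits; positive values seem to mean higher polarization but the record does not say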
Target sequence (P41235 whole entry, looked up): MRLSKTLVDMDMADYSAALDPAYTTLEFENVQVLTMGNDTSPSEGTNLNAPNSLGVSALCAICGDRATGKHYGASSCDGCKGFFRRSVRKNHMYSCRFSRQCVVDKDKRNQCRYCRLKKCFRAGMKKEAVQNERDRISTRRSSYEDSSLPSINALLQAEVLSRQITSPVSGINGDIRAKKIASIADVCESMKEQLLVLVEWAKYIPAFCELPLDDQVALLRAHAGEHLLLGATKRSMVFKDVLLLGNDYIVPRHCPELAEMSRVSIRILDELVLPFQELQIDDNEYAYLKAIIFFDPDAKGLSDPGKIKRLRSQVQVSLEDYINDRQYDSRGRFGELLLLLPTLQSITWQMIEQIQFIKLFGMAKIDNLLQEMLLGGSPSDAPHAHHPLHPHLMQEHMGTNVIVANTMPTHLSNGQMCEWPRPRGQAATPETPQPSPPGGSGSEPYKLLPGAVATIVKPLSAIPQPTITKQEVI
Ecoli rRNA inh OD600 – recorded beside Ecoli rRNA inh, whose call it bears; OD600 change, %; measured here: OD600 growth;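 optical density of the mix in the first replicate; 0 = DMSO median and -100 = no signal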
Ecoli rRNA inh RFP – also measured in Ecoli rRNA inh; calls as there; RFP signal change, %; measured here: RFP humanized mutant strains;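 first replicate; 0 = DMSO median and -100 = no signal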
The depositor's hits bear a star; i = inactive; ? = inconclusive; . = no result given; & = joins results of further samples. An excerpt; count on the stated rates, not on these rows.

SMILES	FGF22 binding	Vif A3G	AF4-AF9 inh	E coli growth	ALR H2O2 inh	Ecoli rRNA inh	Ecoli rRNA inh OD600	Ecoli rRNA inh RFP	HNF4A DNA FP
CC1CC1C(=O)OCC(=O)Nc1cccc(Br)c1 (centres undefined)	i	-0.8%	0.4	0.683	.	-2.0	10.5	-2.0	-1.2
CCCNC(=O)Nc1ccc2c(c1)OC[C@H](C)N(C(=O)C1CCOCC1)C[C@H](C)[C@H](OC)CN(C)C2=O	i	.	0.2	.	.	2.1	8.6	-1.0	.
COC(=O)C1=C(C)N(C)C(=NCc2ccc3c(c2)OCO3)NC1c1ccc(C(F)(F)F)cc1 (centres undefined)	.	.	4.9	.	.	-19.4	-45.0	-1.9	.
O=C(CSc1ccc([N+](=O)[O-])cn1)Nc1ccc2[nH]c(=O)[nH]c2c1	.	.	-7.3	0.695	-5.0	-0.5	4.9	-4.9	-0.6
Nc1nonc1C(=O)N/N=C\c1cc2c(cc1Cl)OCO2	i	.	0.6	.	-12.9	0.4	1.6	0.9	-4.2
COc1ccc(CCN(Cc2nc(-c3ccccc3)no2)Cc2nc(-c3ccccc3)no2)cc1OC	.	-1.9%	.	0.784	0.5	.	.	.	2.0
COc1ccc(/C=N/NC(=O)C2C(=O)NCC2c2ccccc2)c(OC)c1 (centres undefined)	.	-4.2%	0.2	.	-8.9	-4.5	-2.4	-2.1	0.1
COc1ccc(C(=O)NCCc2nc3cc([N+](=O)[O-])ccc3n2C)cc1	i	-3.1%	-5.0	0.633	2.3	10.4	6.7	3.0	0.6
CS(=O)(=O)N(CC(=O)Nc1ccccc1C(=O)NCc1ccco1)c1ccc2c(c1)OCCO2	.	-2.9%&19.6%	.	0.692	-2.7	.	.	.	3.5
COc1cc(OC)cc(C(=O)NCC(=O)NCC(c2ccco2)N2CCCCC2)c1 (centres undefined)	i	-4.6%	-1.2	0.663	4.4	7.6	13.4	0.4	1.9
C[C@H](CO)N1C[C@H](C)[C@@H](CN(C)C(=O)Nc2ccc(F)cc2)Oc2ccc(NS(C)(=O)=O)cc2C1=O	i	.	-2.5&-0.5	.	-1.9	3.6&17.9	-2.7&8.2	-1.4&0.2	6.1
CO[C@H]1CN(C)C(=O)c2cc(NC(=O)CC(F)(F)F)ccc2OC[C@@H](C)N(C(C)=O)C[C@@H]1C	i	.	-22.8	.	.	2.6	1.3	1.4	.
Cc1cc(OCC(=O)Nc2ccc(N3CCN(C(=O)c4ccco4)CC3)cc2)cc(C)c1Cl	i	1.7%	-46.3	0.702	-9.4	7.0	4.6	4.9	-5.7
CCOC(=O)C(=O)N(CC)C1CCS(=O)(=O)C1 (centres undefined)	i	4.9%	-1.1	0.661	-3.5	1.2	7.6	0.2	3.5
Cn1cc(CN2CCc3c([nH]c4ccccc34)C2C(C)(C)C)cn1 (centres undefined)	i	22.0%	2.8	0.712	17.3	-0.3	6.2	-2.5	3.9
Cc1noc(C)c1NC(=O)Nc1cccc2c1O[C@@H](CN(C)Cc1ccccc1)[C@@H](C)CN([C@@H](C)CO)C2=O	i	.	-1.9	.	.	3.1	4.2	-3.7	.
O=C(COC(=O)CNC(=O)C1CCCCC1)Nc1ccc2c(c1)OCCO2	i	-6.5%	-0.1	0.734	4.2	11.2	9.3	2.8	0.6
O=C(/C=C/Nc1cccc(F)c1)c1ccco1	.	10.1%	.	0.705	.	.	.	.	0.1
Cc1cc(C)n(C(=O)c2nn(C)c(C)c2[N+](=O)[O-])n1	.	?	.	0.641	-2.5	.	.	.	1.1
O=C(Nc1cccc(Cl)c1)Nc1ccc2nccnc2c1	i	5.8%	-0.5	0.564	-199.4	-25.0	-38.7	-2.5	2.0
Cc1ccc(OC(=O)c2cc(=O)c3ccccc3o2)cc1	.	?	.	0.677	26.6	.	.	.	-0.6
CC(C)(C)NC(=O)NC(=O)COC(=O)COc1ccc(Cl)cc1Cl	i	-3.9%	-1.0	0.7	-2.0	8.1	9.0	0.0	1.0
CCOc1ccc(-n2c(SCc3ccc(C(=O)OC)o3)nc3c(c2=O)SCC3)cc1	.	-0.1%	.	0.714	-16.1	.	.	.	-4.2
O=C(Nc1ccnn1C1CCN(Cc2cccc(F)c2F)CC1)C1CCCC1	i	.	0.8	0.678	-5.5	1.1	-4.2	-1.2	2.5
CC1CC(c2ccccc2)NS(=O)(=O)O1 (centres undefined)	i	.	.	.	-1.1	5.6	-1.2	0.0	-4.3
Cc1noc(C)c1S(=O)(=O)Nc1ccc2c(c1)CC(=O)N([C@H](C)CO)C[C@@H](C)[C@H](CN(C)C(=O)Nc1ccccc1)O2	i	.	1.5	.	.	4.0	6.4	-2.1	.
O=C(O)c1ccccc1/C=N/Nc1ccc(S(=O)(=O)N2CCCC2)cc1[N+](=O)[O-]	i	-5.9%	5.1	.	0.4	4.5	5.1	-1.9	-1.2
CCCC(=O)Nc1sc2c(c1C#N)CCCCC2	.	-6.1%	.	0.731	1.9	.	.	.	4.2
COC(=O)[C@H](Cc1ccccc1)NC(=O)c1ccc2ccccc2n1	i	.	-0.8	0.623	-3.3	-9.7	-16.1	2.0	-1.0
Cc1ccc(C(=O)NCCCn2ccnc2)cc1[N+](=O)[O-]	.	3.3%	.	0.684	-3.7	.	.	.	-0.1
N#Cc1cccc(-c2ccc([C@H]3[C@@H](CO)N4CCCCN(C(=O)Nc5ccc(F)cc5)C[C@H]34)cc2)c1	i	.	3.6	.	.	-55.3	-75.0	-12.8	.
O=C(N/C=C\c1ccccc1)NCc1ccc(Cl)cc1Cl	.	-4.4%	.	0.672	-25.6	.	.	.	3.7
CC(C)CC#Cc1ccc2c(c1)O[C@H](CN(C)Cc1ccncc1)[C@@H](C)CN([C@@H](C)CO)S2(=O)=O	i	.	3.4	.	.	-14.9	-32.5	11.1	.
C[C@H](CO)N1C[C@H](C)[C@H](CN(C)C(=O)c2ccncc2)OCCCC[C@H](C)Oc2ccc(N(C)C)cc2C1=O	i	.	4.1	.	.	0.7	4.2	-3.8	.
COc1ccccc1CC(=O)Nc1ccc2nc(C)sc2c1	.	31.7%	.	0.709	-8.6	.	.	.	1.5
Cc1ccc(C2C3=C(CC(C)(C)CC3=O)Nc3[nH]c(=S)[nH]c(=O)c32)cc1 (centres undefined)	.	?	.	0.686	42.7	.	.	.	-1.1
Cc1ccc(C)c(Nc2nc3ccccc3[nH]2)c1	i	.	-7.9	.	.	-16.8	-8.8	-5.5	-7.1
COc1ccc(C(=O)N(C)Cc2nc3ccccc3c(=O)[nH]2)cc1S(=O)(=O)N1CCCC1	i	.	-0.5	0.658	.	.	.	.	-4.5
CCC(C)(C)NC(=O)CN(C(=O)CCC(=O)Nc1nccs1)c1ccccc1C	i	1.7%	4.0	0.613	-3.3	-3.6	-10.6	-2.5	0.9
COc1ccc(C#Cc2ccc3c(c2)O[C@H](CN(C)C(=O)Nc2cccc(OC)c2)[C@@H](C)CN([C@H](C)CO)S3(=O)=O)cc1	i	.	-9.5	.	.	0.0	8.2	0.3	.
Cc1cccn2c(=O)c3cc(C(=O)NC4CCCCC4)sc3nc12	i	.	4.1	0.683	1.7	-3.4	-5.2	1.9	5.8
CCc1ccc(-c2nnn(CC(=O)N(C3CCCC3)C3CCS(=O)(=O)C3)n2)cc1 (centres undefined)	i	0.1%	-1.3	0.673	.	.	.	.	-2.3
Cc1ccc(Nc2nnc(SCC(=O)Nc3cccnc3Cl)s2)cc1C	i	.	7.5	0.625	2.8	-31.7	-63.6	-4.5	-0.3
C[C@@H](NC(=O)C[C@H]1CC[C@@H]2[C@H](COC[C@H](O)CN2C(=O)Nc2cccc(F)c2)O1)c1ccccc1	i	.	-1.6	.	.	-18.2	-19.4	-0.9	.
CCOC(=O)c1sc(=S)n(-c2ccccc2Cl)c1C	i	8.5%	7.0	0.637	.	-34.7	-55.7	-4.5	1.4
COCC(=O)Nc1ccc2c(c1)OC[C@H](C)N(C(=O)c1cnccn1)C[C@H](C)[C@H](OC)CN(C)C2=O	i	.	0.6	.	.	0.5	1.2	-3.1	.
Nc1nc(SCC(=O)Nc2ccc(Cl)cn2)n[nH]1	.	-0.6%	-1.3	0.656	44.9	8.7	1.1	0.1	-1.0
CC(C)NC(=O)c1cc(=O)n(C)c(=O)n1C	i	0.6%	7.3	0.661	-6.4	17.8	4.7	-5.5	1.0
O=C(NCc1ccc(Cl)cc1)c1ncn[nH]1	i	4.6%	-0.2	0.681	-7.3	-1.5	-2.4	-1.2	1.8
N#Cc1c(-c2ccccc2)nc(SCC(=O)Nc2ccc(OC(F)(F)Cl)cc2)[nH]c1=O	i	-14.2%	-4.1	0.654	98.6*	-8.6	-31.8	7.5	0.0
(continued)
SMILES	FGF22 binding	Vif A3G	AF4-AF9 inh	E coli growth	ALR H2O2 inh	Ecoli rRNA inh	Ecoli rRNA inh OD600	Ecoli rRNA inh RFP	HNF4A DNA FP
COc1ccc(S(=O)(=O)N(C)C[C@H]2OCCCC[C@H](C)Oc3ccc(NS(=O)(=O)c4ccccc4)cc3C(=O)N([C@H](C)CO)C[C@@H]2C)cc1	i	.	-1.2	.	.	-4.8	-1.5	-2.3	.
O=C(OC(C(=O)NCC1CCCO1)c1ccccc1F)c1ccco1 (centres undefined)	.	1.0%	.	0.666	-1.5	.	.	.	-7.9
COc1ccc(CNC(=O)N[C@@H](Cc2c[nH]c3ccccc23)C(=O)O)cc1	i	-2.0%	-0.4	0.671	1.6	10.7	8.1	-0.2	-0.5
O=C(CC12CC3CC(CC(C3)C1)C2)Nc1ccc2c(c1)COC2=O	.	1.0%	.	0.699	.	.	.	.	-0.2
COC(=O)c1c(C)oc2ccc(NS(=O)(=O)c3cccs3)cc12	.	9.7%	.	0.722	2.4	.	.	.	-0.7
C[C@H](CO)N1C[C@H](C)[C@@H](CN(C)C(=O)c2ccccn2)Oc2ncc(-c3cccc(C#N)c3)cc2C1=O	i	.	-3.5	.	.	-0.1	-1.0	-0.6	.
CCC(=O)N1C[C@H](C)[C@@H](OC)CN(C)C(=O)c2ccc(NC(=O)c3cnccn3)cc2OC[C@H]1C	i	.	-1.4	.	.	-5.0	-1.6	3.1	.
Cc1ccc(C)c(S(=O)(=O)N2CCN(C(=O)c3ccc(C)s3)CC2)c1	i	.	-1.9	0.687	1.1	-2.5	-29.6	-2.6	3.1
O=C(NCc1ccncc1)C1Cc2c(-c3ccc(Cl)cc3)ccnc2O1 (centres undefined)	i	.	-2.2	.	.	-2.7	-35.0	-15.5	6.0
O=C(Cc1ccncc1)NCC[C@H]1CC[C@H](NC(=O)C2CCCCC2)[C@H](CO)O1	i	.	-1.3	.	.	0.4	-1.6	-1.4	.
COc1ccc(-c2nn(-c3ccccc3)cc2CO)cc1OC	.	1.2%	.	0.716	.	.	.	.	-0.8
O=C(c1ccco1)N1CCN(Cc2ccccc2Br)CC1	i	-7.7%	4.3	0.66	1.1	0.2	2.3	-0.4	3.5
Cc1ccc(-c2nnnn2CS(=O)(=O)c2ccccc2)cc1	.	-0.7%	.	0.684	-22.8	.	.	.	0.7
CCCNC(=O)N1[C@@H]2CN(C(=O)c3ccncc3)c3ccccc3[C@@H]2[C@@H]1CO	i	.	-2.2	.	.	1.7	2.3	-2.2	.
O=c1oc2ccccc2c(O)c1CN1CCCCC1	.	18.2%	.	0.711	42.2	.	.	.	3.7
